# Screening data as filed in PubChem.
# rRNA inh HTS – selective bacterial rRNA inhibition in E. coli | E. coli WT GFP vs humanized-ribosome RFP mutants, fluorescence, 24 h; stronger effect = lower value; DMSO median 0, no signal -100 | GFP signal change (wild-type ribosome), % (no concentration beside the values) | 350,000 compounds, 1.6% hits | AID 720706;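 active = significant combined selectivity score with lowered wild-type GFP, culture density cut under 30%, mutant RFP and density less affected; inactive = any of these conditions unmet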; note: one replicate is shown; some compounds called inactive have numbers as strong as hits
# rRNA inh HTS OD600 – second read-out of rRNA inh HTS, no call of its own (marks repeat the call); OD600 change, %; measured here: OD600 growth;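 optical density of the mix in the first replicate; 0 = DMSO median and -100 = no signal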
# rRNA inh HTS RFP – second read-out of rRNA inh HTS, no call of its own (marks repeat the call); RFP signal change, %; measured here: RFP humanized mutant strains;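 first replicate; 0 = DMSO median and -100 = no signal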
# * marks the source's active call; other numbers are inactive results; & = joins results of further samples.
# The opening 3 compounds, ahead of the listing:
rRNA inh HTS | rRNA inh HTS OD600 | rRNA inh HTS RFP | Compound
-2 | -8 | 1.0 | C[C@H](CO)N1C[C@H](C)[C@@H](CN(C)S(=O)(=O)c2ccc(F)cc2)Oc2ccc(NC(=O)Cc3ccccc3)cc2CC1=O
2 | 2 | 1.2 | COc1ccc(NC(=O)N(C)C[C@@H]2OCCCC[C@H](C)Oc3ccc(N(C)C)cc3C(=O)N([C@H](C)CO)C[C@H]2C)cc1
3 | 6 | -0.9 | C[C@@H]1CN([C@H](C)CO)C(=O)Cc2cc(NC(=O)Nc3ccc(C(F)(F)F)cc3)ccc2O[C@@H]1CN(C)C(=O)Nc1ccc(C(F)(F)F)cc1

# Results, repeating the preview:
rRNA inh HTS | rRNA inh HTS OD600 | rRNA inh HTS RFP | Compound
-2 | -8 | 1.0 | C[C@H](CO)N1C[C@H](C)[C@@H](CN(C)S(=O)(=O)c2ccc(F)cc2)Oc2ccc(NC(=O)Cc3ccccc3)cc2CC1=O
2 | 2 | 1.2 | COc1ccc(NC(=O)N(C)C[C@@H]2OCCCC[C@H](C)Oc3ccc(N(C)C)cc3C(=O)N([C@H](C)CO)C[C@H]2C)cc1
3 | 6 | -0.9 | C[C@@H]1CN([C@H](C)CO)C(=O)Cc2cc(NC(=O)Nc3ccc(C(F)(F)F)cc3)ccc2O[C@@H]1CN(C)C(=O)Nc1ccc(C(F)(F)F)cc1
3 | 3 | -0.9 | C[C@@H]1CN([C@H](C)CO)S(=O)(=O)c2ccc(C#CC(C)(C)O)cc2O[C@H]1CN(C)CC1CCCC1
6 | 3 | 2.6 | CCCC#Cc1ccc([C@H]2[C@@H](CO)N3CCCCN(Cc4cccnc4)C[C@H]23)cc1
0 | 0 | -3.6 | Cn1cnc(S(=O)(=O)N2CC[C@H]3[C@H](CO)Nc4ccc(-c5ccccc5)cc4[C@H]32)c1
0 | -8 | 4.0 | CO[C@H]1CN(C)C(=O)c2cc(NC(=O)CC(F)(F)F)ccc2OC[C@@H](C)NC[C@H]1C
3 | 5 | -2.2 | COc1ccc(NC(=O)N(C)C[C@@H]2Oc3ccc(NS(=O)(=O)c4ccc(Cl)cc4)cc3CC(=O)N([C@@H](C)CO)C[C@H]2C)cc1
-1 | -1 | 1.2 | O=C(C[C@H]1CC[C@H](NS(=O)(=O)c2ccccc2)[C@@H](CO)O1)NCc1ccccc1F
1 | 4 | -3.1 | C[C@H]1CN([C@@H](C)CO)C(=O)c2c(c3ccccc3n2C)-c2ccccc2CO[C@H]1CN(C)Cc1ccc(Cl)c(Cl)c1
1 | 6 | 1.8 | COc1cccc(-c2ccc3c(c2)[C@@H]2[C@@H](CCN2S(=O)(=O)c2ccccc2OC)[C@@H](CO)N3)c1
1 | -4 | 0.0 | COc1ccc(-c2ccc([C@@H]3[C@H]4CN(C(=O)NC(C)C)CCCCN4[C@H]3CO)cc2)cc1
3 | 6 | -0.1 | O=C(NCC[C@H]1CC[C@H](NS(=O)(=O)Cc2ccccc2)[C@@H](CO)O1)C1CCCC1
19 | 31 | 0.5 | Cc1nc(C(=O)N2CCC(C)(C(=O)NS(=O)(=O)C3CC3)C2)c(C)o1 (stereo unspecified)
2 | 17 | 0.7 | C[C@H](CO)N1C[C@H](C)[C@H](CN(C)C)Oc2c(NC(=O)CCCCCC(=O)Nc3ccccc3N)cccc2C1=O
-6 | -20 | -0.1 | COc1ccc(C(=O)NN/C=C/C(=O)c2ccc(Br)cc2)cc1
-2 | 2 | 2.5 | COc1ccc2c3c([nH]c2c1)[C@@H](CO)N(C(=O)C1CCCC1)CC31CN(C(=O)c2ccncc2)C1
0 | 6 | -4.7 | CCCC(=O)N1CC2(C1)CN(C(=O)C1CCC1)[C@@H](CO)c1[nH]c3cc(OC)ccc3c12
2 | 3 | -1.6 | C[C@H]1CN([C@@H](C)CO)C(=O)CCCn2cc(nn2)CO[C@@H]1CN(C)Cc1ccc(C(=O)O)cc1
0 | 4 | -1.4 | Cc1ccc(S(=O)(=O)N(C)C[C@@H]2OCCCC[C@H](C)Oc3ccc(NC(=O)CCC(F)(F)F)cc3C(=O)N([C@H](C)CO)C[C@@H]2C)cc1
3 | 1 | 0.8 | COC(=O)[C@@H]1[C@@H](CO)[C@@H]2Cn3c(cccc3=O)[C@@H]2N1C(=O)C1CCC1
-10 | -6 | 6.6 | Cc1ccc(S(=O)(=O)N(C)C[C@H]2Oc3ccc(N(C)C)cc3CC(=O)N([C@H](C)CO)C[C@@H]2C)cc1
2 | 4 | 0.4 | CO[C@@H]1CN(C)C(=O)c2cc(NC(=O)Cc3ccccc3)ccc2OC[C@H](C)NC[C@@H]1C
3 | 5 | 2.6 | O=C1CCCC2=C1C1(CCCC1)N=C(Nc1nc3cc(-c4ccccc4)ccc3o1)N2
0 | -20 | 11 | CS(=O)(=O)N1CC(=O)N2[C@H](CO)[C@H](c3ccc(C#CCC4CCCC4)cc3)[C@H]2C1
11 | 18 | -0.2 | CCCS(=O)(=O)NC(=O)C1(C)CCCN(C(=O)c2nc3ccccc3s2)C1 (stereo unspecified)
2 | 12 | -4.2 | C[C@H]1CN([C@@H](C)CO)C(=O)c2cc(NS(=O)(=O)c3cn(C)cn3)ccc2O[C@@H]1CN(C)Cc1ccncc1
-1 | 1 | -0.6 | COc1ccccc1C(=O)Nc1ccc2c(c1)C(=O)N(C)[C@@H]1CC[C@H](CC(=O)NCCc3ccncc3)O[C@@H]1CO2
1 | 0 | 3.4 | Cc1ccc(S(=O)(=O)Nc2ccc3c(c2)C(=O)N([C@H](C)CO)C[C@H](C)[C@H](CN(C)C(=O)c2ccncc2)OCCCC[C@H](C)O3)cc1
-1 | -33 | 8.4 | CC(=O)N(C)C[C@H]1Oc2cc(C#CC3CCCCC3)ccc2S(=O)(=O)N([C@@H](C)CO)C[C@H]1C
-2 | 3 | -4.8 | CN(C)CC(=O)N1CC2(C1)[C@H](c1ccccc1)[C@@H](CO)N2C(=O)C1CCCCC1
-4 | -3 | -2.2 | CN(C)C(=O)C[C@@H]1CC[C@H]2[C@H](COc3ccc(NC(=O)c4cnccn4)cc3C(=O)N2C)O1
9 | 25 | -3.4 | CC(C)n1c(=O)c2ccccc2n1S(C)(=O)=O
4&2 | 18&2 | -7.2&4.6 | CCCNC(=O)N1[C@@H]2CNC[C@H]1C2c1ccc(-c2ccccc2)cc1 (stereo partly specified)
3 | 7 | -1.6 | O=C(c1cccnc1)N1C[C@H]2[C@@H](c3ccccc31)[C@@H](CO)N2C(=O)Nc1ccc(F)cc1
-8 | -15 | 3.9 | C[C@@H]1CN([C@H](C)CO)C(=O)Cc2cc(NC(=O)Nc3cccc4ccccc34)ccc2O[C@H]1CN(C)Cc1ccncc1
0 | -1 | 0.1 | CO[C@H]1CN(C)C(=O)c2ccc(NS(C)(=O)=O)cc2OC[C@@H](C)N(C(=O)CC2CC2)C[C@H]1C
1 | -4 | 1.0 | CC(C)NC(=O)N(C)C[C@@H]1Oc2ccc(NC(=O)c3ccncc3)cc2CC(=O)N([C@H](C)CO)C[C@@H]1C
2 | 4 | -0.9 | CCCN1C[C@@H](C)[C@@H](OC)CN(C)C(=O)c2ccc(NC(=O)c3cnccn3)cc2OC[C@@H]1C
11 | 16 | 2.5 | CC(=O)c1ccc(S(=O)(=O)N2CCN(C(=O)C(=O)c3cccc(C(F)(F)F)c3)CC2)cc1
5 | 6 | 0.0 | O=C(C[C@@H]1CC[C@@H]2[C@H](COC[C@H](O)CN2CC2CCOCC2)O1)NCc1ccc(Cl)cc1
1 | 1 | 26 | CCn1c2ccccc2nc2cc3c(cc21)c(Cl)c(=O)c1ccccc13
3 | 7 | -0.4 | CO[C@H]1CN(C)C(=O)c2ccc(NC(=O)c3cccc(F)c3)cc2OC[C@@H](C)NC[C@H]1C
2 | 3 | 0.4 | COc1ccc(-c2cnc3c(c2)C(=O)N([C@H](C)CO)C[C@@H](C)[C@@H](CN(C)C(=O)C2CCOCC2)O3)cc1
7 | 0 | -0.7 | COCC#Cc1cnc2c(c1)C(=O)N([C@@H](C)CO)C[C@H](C)[C@H](CN(C)Cc1ccccc1F)O2
5 | 8 | 1.4 | O=C(CC[C@H]1O[C@@H](n2cnc3c(NC(=O)c4ccccc4)ncnc32)[C@H](O)[C@@H]1O)NCC(F)(F)F
2 | 9 | -2.8 | CC(C)(O)C#Cc1ccc([C@H]2[C@H]3CN(C(=O)c4cccnc4)CCCCN3[C@H]2CO)cc1
-2 | 2 | -0.6 | CO[C@@H]1CN(C)C(=O)c2cc(NS(=O)(=O)c3ccc(F)cc3)ccc2OC[C@H](C)NC[C@H]1C
1 | 2 | -0.7 | COc1ccc2c3c([nH]c2c1)[C@H](CO)N(C(=O)C1CC1)CC31CCN(S(C)(=O)=O)CC1
-5 | 20 | -5.8 | C[C@@H]1CCCCO[C@@H](CN(C)CC2CCCCC2)[C@@H](C)CN([C@@H](C)CO)C(=O)c2cc(NC(=O)Nc3ccc(C(F)(F)F)cc3)ccc2O1

# (further entries)
rRNA inh HTS | rRNA inh HTS OD600 | rRNA inh HTS RFP | Compound
6 | 3 | -3.4 | OC[C@@H]1[C@@H](c2ccc(Br)cc2)[C@H]2CN(Cc3cncnc3)CCCCN12
-3 | -4 | -0.5 | C[C@@H]1CN([C@@H](C)CO)C(=O)c2cccc(NC(=O)c3ccc(-c4nccs4)cc3)c2O[C@H]1CN(C)Cc1ccncc1
2 | -2 | -1.3 | COc1ccc(C#Cc2ccc([C@H]3[C@H](CO)N4C(=O)CN(C(C)=O)C[C@@H]34)cc2)cc1
-10 | -3 | 1.0 | Cn1ccc2c(N3CCCCCC3)cc3c(c21)C1CCC3O1 (stereo unspecified)
4 | 6 | -4.2 | CC(C)CNC(=O)C1(C)CCCN1C(=O)c1cccnc1Oc1ccccc1 (stereo unspecified)
0 | 3 | -3.4 | COc1ccc(S(=O)(=O)N(C)C[C@@H]2OCCCC[C@@H](C)Oc3ccc(NC(=O)Nc4cccc5ccccc45)cc3C(=O)N([C@@H](C)CO)C[C@@H]2C)cc1
1 | -14 | 14 | C[C@H]1CN([C@@H](C)CO)C(=O)c2ccccc2-c2ccccc2CO[C@H]1CN(C)Cc1ccccc1
-1 | 3 | -2.9 | CNC[C@@H]1Oc2ccc(NC(=O)Cn3cnnn3)cc2CC(=O)N([C@@H](C)CO)C[C@@H]1C
-4 | -28 | 15 | C[C@H](O)C#Cc1ccc2c(c1)O[C@H](CN(C)Cc1ccc(-c3ccccc3)cc1)[C@H](C)CN([C@@H](C)CO)S2(=O)=O
-48 | -72 | 8.8 | O=C(c1ccccc1F)N1CC2(C1)[C@@H](c1ccccc1)[C@@H](CO)N2CC1CCCC1
1 | -2 | -0.2 | Cc1noc(C)c1NC(=O)Nc1ccc2c(c1)C(=O)N([C@H](C)CO)C[C@@H](C)[C@@H](CN(C)CC1CCCCC1)O2
-1 | 0 | -0.4 | Cc1ccccc1-c1ccc(C2[C@H]3CNC[C@@H]2N3Cc2cccnc2)cc1 (stereo partly specified)
5 | 12 | -5.0 | O=C(Nc1ccc(OCCO)cc1)c1csc([C@@H]2C[C@H](O)[C@@H](CO)O2)n1
2 | 12 | 0.3 | CC=Cc1ccc2n(c1=O)C[C@@H]1[C@@H](CO)[C@H](C(=O)NCCc3ccncc3)[C@H]2N1CCC(F)(F)F (mixture of isomers)
6 | 3 | -1.0 | CC(C)NC(=O)N(C)C[C@@H]1Oc2ccc(NC(=O)CCC(F)(F)F)cc2C(=O)N([C@H](C)CO)C[C@@H]1C
8 | 19 | -4.0 | CCCNC(=O)N1CC2(C1)CN(C(=O)COC)[C@@H](CO)c1[nH]c3cc(OC)ccc3c12
9 | 18 | -2.6 | COCC#Cc1cnc2c(c1)C(=O)N([C@H](C)CO)C[C@@H](C)[C@@H](CN(C)C(=O)c1cnccn1)O2
1 | 3 | 0.1 | CN1CCN(C(=O)C[C@H]2CC[C@H](NC(=O)Cc3ccccn3)[C@H](CO)O2)CC1
0 | 12 | -6.1 | CCCC#Cc1ccc2c(c1)[C@H]1[C@H](CCN1S(=O)(=O)c1cn(C)cn1)[C@H](CO)N2
0 | 3 | 0.5 | COc1ccc(C(=O)Nc2ccc3c(c2)OC[C@H](C)NC[C@H](C)[C@@H](OC)CN(C)C3=O)cc1
0 | 0 | -1.0 | O=S(=O)(N[C@@H]1CC[C@@H](CCn2cc(C3(O)CCCC3)nn2)O[C@@H]1CO)c1ccc(F)cc1
-45 | -62 | -15 | O=c1[nH]c(=S)[nH]c2c1[C@H](CCc1cccc(Cl)c1)O[C@H](C1CC1)C2
-25 | -29 | -3.1 | CCC(c1nnnn1-c1ccc2c(c1)OCCO2)N1CCN(Cc2c(F)cccc2Cl)CC1 (stereo unspecified)
8 | -23 | 10 | COc1ccc(S(=O)(=O)N[C@@H]2CC[C@@H](CC(=O)N3CCC(Cc4ccccc4)CC3)O[C@@H]2CO)cc1
2 | 8 | 0.9 | CN(C)CC#Cc1ccc([C@@H]2[C@H]3CN(C(=O)c4cccnc4)CC(=O)N3[C@H]2CO)cc1
-3 | -1 | 2.3 | CCCN(C)C[C@H]1Oc2cc(-c3ccc(F)cc3)ccc2S(=O)(=O)N([C@H](C)CO)C[C@H]1C
2 | 10 | -2.9 | COc1ccc(-c2ccc3n(c2=O)C[C@@H]2[C@@H](CO)[C@H](C(=O)N(C)C)N(CC4CC4)[C@H]32)cc1
-2 | -8 | 3.5 | CO[C@H](C(=O)N(C)C[C@H]1OCc2ccccc2-c2c(n(C)c3ccccc23)C(=O)N([C@H](C)CO)C[C@@H]1C)c1ccccc1

# Compound profiles, from the list above.
# `COc1ccc(-c2ccc3n(c2=O)C[C@@H]2[C@@H](CO)[C@H](C(=O)N(C)C)N(CC4CC4)[C@H]32)cc1` across the screens: rRNA inh HTS = 2; rRNA inh HTS OD600 = 10; rRNA inh HTS RFP = -2.9
# `CCCN(C)C[C@H]1Oc2cc(-c3ccc(F)cc3)ccc2S(=O)(=O)N([C@H](C)CO)C[C@H]1C` across the screens: rRNA inh HTS = -3; rRNA inh HTS OD600 = -1; rRNA inh HTS RFP = 2.3

# Not all compounds are listed; the hit share may differ from the screen's.
